Compound activity as filed in PubChem.
Mtb H37Rv = M. tuberculosis H37Rv growth inhibitors, H37Rv strain (AID 1626); 0.95% of 220,000 active; M. tuberculosis H37Rv growth inhibition; higher % means a stronger effect; one-dose inhibition, % at 10 µM; IC50 in µM for titrated hits;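 active = confirmed in a dose series; inconclusive = inhibition above 80% but not taken into the dose series; inactive = below 80% or under 30% at every dose of the series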;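 note: bacteria incubated seven days before Alamar blue readout; 0% = bacteria only wells and 100% = bacteria with antibiotic wells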
Arbovirus anti = blocks arbovirus infection; arbovirus infection cell-based antiviral screen; inhibition, % at 10 µM; 0.37% of 200,000 active; AID 1251;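 active = inhibition from about 30%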;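 note: bluetongue infection of BSR cells; cell survival read as ATP light after 72 h; 0% = infected wells without compound and 100% = uninfected wells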
YopH PTP inh = blocks Yersinia enterocolitica YopH tyrosine phosphatase; inhibition, %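 (about 10 µM by stock and volumes)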; 0.16% of 140,000 active; AID 898; fluorescence Ex485/Em525;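 active = inhibition of 50% or more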;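 note: controls were vehicle for no effect and minimum signal wells for full effect; inactives centre near -20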
Mtb betalactam = beta-lactam sensitization of Mtb H37Rv. M. tuberculosis H37Rv growth with meropenem, percent inhibition; hits of this screen are not shown here. 0.27% of 330,000 active. inhibition, % at 25 µM;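 active = about 74% or more and at least 40 points above the plate without the antibiotic, then above 30% in a dose series; inconclusive = first-round hits that could not be retested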;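 note: growth measured after seven days incubation then overnight dye step; 0% = bacteria only wells and 100% = bacteria with antibiotic; twin plates without the antibiotic show which effects depend on it; some results filed as inactive read as strong as hits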
RecA splice inh = blocks M. tuberculosis RecA intein splicing; P9WHJ3; cell-free RecA intein splicing, fluorescence; inhibition, %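 (about 9 µM by stock and volumes)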; 0.75% of 290,000 active; AID 2221; in the data active = inhibition above about 30%; inconclusive = no clear call, values can overlap the other calls;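 note: 0% = vehicle wells and 100% = reference inhibitor control wells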
Target sequence (P9WHJ3 whole entry, looked up, canonical isoform): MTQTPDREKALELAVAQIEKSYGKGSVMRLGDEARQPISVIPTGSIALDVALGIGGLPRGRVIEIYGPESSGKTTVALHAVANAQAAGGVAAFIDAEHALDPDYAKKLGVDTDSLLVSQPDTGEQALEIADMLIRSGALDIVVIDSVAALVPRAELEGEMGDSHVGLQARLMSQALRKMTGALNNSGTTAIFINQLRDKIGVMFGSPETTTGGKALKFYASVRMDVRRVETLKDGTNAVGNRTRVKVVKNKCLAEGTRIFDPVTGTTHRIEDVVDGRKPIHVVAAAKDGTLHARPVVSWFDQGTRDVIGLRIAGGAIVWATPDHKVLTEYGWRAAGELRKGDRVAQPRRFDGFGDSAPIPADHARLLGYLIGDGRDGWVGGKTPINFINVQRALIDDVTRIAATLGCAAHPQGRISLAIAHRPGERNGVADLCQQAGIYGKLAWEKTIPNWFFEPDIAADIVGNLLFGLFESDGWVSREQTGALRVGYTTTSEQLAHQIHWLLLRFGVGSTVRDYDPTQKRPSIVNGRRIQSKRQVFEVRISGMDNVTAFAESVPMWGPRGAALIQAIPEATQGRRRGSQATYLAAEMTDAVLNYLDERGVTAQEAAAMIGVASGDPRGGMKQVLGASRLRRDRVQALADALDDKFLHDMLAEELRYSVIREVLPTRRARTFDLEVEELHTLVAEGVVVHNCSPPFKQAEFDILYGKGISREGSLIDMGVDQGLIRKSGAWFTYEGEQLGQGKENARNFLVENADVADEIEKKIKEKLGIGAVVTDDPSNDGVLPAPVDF
Arbovirus anti repeat = second read-out of Arbovirus anti, no call of its own (marks repeat the call); inhibition, %; measured here: 10K subset replicate screen; many hits read low in the repeat;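 first of two repeat runs on a subset; 0% = infected and 100% = uninfected wells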
Active calls of the source: *; u = inconclusive; x = not tested or not shown. This is a subset. The share of hits here may be higher or lower than overall.

SMILES	Mtb H37Rv	Arbovirus anti	YopH PTP inh	Mtb betalactam	RecA splice inh	others
CCOC(=O)Cc1c(Sc2ccccc2)c2cc(C)ccc2n1C	14%	26	-29	26	8.7
CCn1nc(C)cc1-c1nnc(Sc2ncc([N+](=O)[O-])s2)n1C	x	x	x	3	-1.7
c1cc2c(cc1-c1cnc3n1CCC3)OCCO2	-5%	-41	-5	10	-1.4
CN(C)C(=O)COC(=O)c1ccccc1OCC(=O)Nc1ccc(SC(F)F)cc1	9%	3	-26	7	0.1
Cn1c(CNC(=O)c2ccco2)nnc1SCC(=O)Nc1cccc(F)c1	-7%	0	x	-9	4.7
Cc1cccnc1NC(=O)Nc1cccc(C(F)(F)F)c1	-5%	1	-34	2	x
Clc1nc(-c2ccccc2)ncc1Oc1ccccc1	x	x	x	-11	16
CCS(=O)(=O)N1CCN(c2ccccn2)CC1	-2%	8	-13	-14	-0.8
COc1ccc(N2C(=O)C3CCCN3C2c2ccccc2F)cc1 (stereo not given)	-6%	4	-22	-4	0.7
O=C(COc1ccc(Cl)cc1)Nc1ccccc1N1CCOCC1	-2%	-8	-29	x	-0.3
COc1ccc(C2=NNC(c3ccco3)=Nc3ccc(F)cc32)cc1	0%	-15	x	65	5.0
COc1cccc(CNC(=O)c2ccccc2C(=O)NC(C)(C)C(=O)NCc2cccc(OC)c2)c1	x	x	x	6	1.8

Ordered by molar mass (largest number first): some entries from above.
SMILES	Mtb H37Rv	Arbovirus anti	YopH PTP inh	Mtb betalactam	RecA splice inh	others
O=C(COc1ccc(Cl)cc1)Nc1ccccc1N1CCOCC1	-2%	-8	-29	x	-0.3
COc1ccc(N2C(=O)C3CCCN3C2c2ccccc2F)cc1 (stereo not given)	-6%	4	-22	-4	0.7
CCS(=O)(=O)N1CCN(c2ccccn2)CC1	-2%	8	-13	-14	-0.8

By substructure, the entries above with a furan ring, fused or not
SMILES	Mtb H37Rv	Arbovirus anti	YopH PTP inh	Mtb betalactam	RecA splice inh	others
Cn1c(CNC(=O)c2ccco2)nnc1SCC(=O)Nc1cccc(F)c1	-7%	0	x	-9	4.7
COc1ccc(C2=NNC(c3ccco3)=Nc3ccc(F)cc32)cc1	0%	-15	x	65	5.0

Returning to the listing; the 5 compounds before the break are reprinted first.
SMILES	Mtb H37Rv	Arbovirus anti	YopH PTP inh	Mtb betalactam	RecA splice inh	others
CCS(=O)(=O)N1CCN(c2ccccn2)CC1	-2%	8	-13	-14	-0.8
COc1ccc(N2C(=O)C3CCCN3C2c2ccccc2F)cc1 (stereo not given)	-6%	4	-22	-4	0.7
O=C(COc1ccc(Cl)cc1)Nc1ccccc1N1CCOCC1	-2%	-8	-29	x	-0.3
COc1ccc(C2=NNC(c3ccco3)=Nc3ccc(F)cc32)cc1	0%	-15	x	65	5.0
COc1cccc(CNC(=O)c2ccccc2C(=O)NC(C)(C)C(=O)NCc2cccc(OC)c2)c1	x	x	x	6	1.8
COc1ccc(NC(=O)NCCCN2CCCC2=O)c(OC)c1	-4%	0	-16	3	1.1
CCc1cc2c(nc1CC)CCN(CC/C(C)=N/OC[C@H]1O[C@H](c3ccccc3)C=C[C@@H]1Oc1ccc(OC)cc1)C2	x	-25	-2	x	12
COC(=O)c1cc(C#N)c(SCc2ccccc2)nc1C	6%	-4	-34	-4	0.9
COc1cc(NC(=O)CCN2CCN(Cc3ccccc3)CC2)cc(OC)c1	-19%	7	-14	-2	8.8
Cc1ccc2nc(N(CCCN(C)C)C(=O)c3ccc4c(c3)CCCC4)sc2c1	8.7µM*	-35	-8	92	4.5
CCCCOC(=O)Nc1ccc(N2CCOCC2)cc1	-10%	4	-18	-1	x	Arbovirus anti repeat=0
O=C1Nc2cc(Cl)c(Cl)cc2N(O)N1c1ccccc1Cl	0%	9	x	3	-1.0
COc1ccc(OCC(=O)N2CCN(C(=O)c3cccc(F)c3)CC2)cc1	-6%	0	-35	-14	-3.1
COc1ccc(C(=O)NNC(=O)c2ccccn2)cc1	-2%	-3	-25	10	1.0
COc1ccc(-c2csc(N(C)C(=O)c3cccs3)n2)cc1	2%	1	x	-2	-0.2
CC(NC(=O)c1c(O)c2ccccc2[nH]c1=O)c1ccccc1 (stereo not given)	x	x	x	7	0.0
CC(=NCc1cccnc1)c1c(O)n(-c2ccc(C)cc2)c(=O)[nH]c1=O	-2%	4	-40	-3	1.2
Cc1nnc(SCc2cccc3ccccc23)n(N)c1=O	8%	-5	-27	100	1.9
CN(C)c1ccc(NC(=O)c2ccncc2)c2ccccc12	-1%	-2	2	6	33*
Cc1cccc(Oc2ccccc2N)c1	-7%	10	-17	3	-4.0
O=S(=O)(Nc1ccc(O)c(Sc2nc3ccccc3s2)c1)c1cccc2ccccc12	2%	-31	-30	5	13
O=C(C1=C[C@H](c2ccc(C(F)(F)F)cc2)C[C@H](OCc2ccc(CO)cc2)O1)N1CCCCCCC1	x	-20	x	2	14
CCCC(=O)Nc1ccc(C(=O)N2CCCC2)cc1	-8%	11	-4	2	0.5
CC(C)(C)NC(=S)N/N=C\c1ccc(-c2ccc([N+](=O)[O-])cc2)o1	-2%	x	x	53	-38
CCC(=O)c1cn(CC(=O)NCc2ccco2)c2ccccc12	-5%	4	8	-1	3.4
CC(C)CCn1c(SC(C)C(=O)NC2CC2)nc2ccccc2c1=O (stereo not given)	x	x	x	-1	-1.8
COc1ccc(NC(=O)Cn2c(=O)n(CC3CCCO3)c(=O)c3ccccc32)c(OC)c1 (stereo not given)	-5%	-3	x	1	-0.4
Cc1ccc(C2C(C(=O)c3ccco3)=C(O)C(=O)N2c2ncccn2)cc1 (stereo not given)	-10%	x	x	-2	x
Cc1ccc(Sc2ncccc2C(=O)NCC(c2ccc(F)cc2)N2CCOCC2)c(C)c1 (stereo not given)	x	x	x	-1	2.1
Cc1ccc(S(=O)(=O)/N=C(/Nc2ccc([N+](=O)[O-])cc2)c2ccccc2)cc1	x	x	x	6	9.4
COc1cccc(-c2cc(=O)c3cc(NC(=O)c4ccc(Cl)cc4)ccc3[nH]2)c1	-8%	-8	-4	1	-2.0
CCOC(=O)C1(Cc2ccccc2C)CCCN(S(C)(=O)=O)C1 (stereo not given)	x	x	x	9	3.2
O=C(N/C(=C\c1ccc([N+](=O)[O-])cc1)C(=O)N1CCCCC1)c1ccccc1	-7%	3	x	-6	2.0
O=C(C1CCCN(S(=O)(=O)c2cnc[nH]2)C1)N1CCN(c2ccc(Cl)cc2)CC1 (stereo not given)	-5%	6	-19	11	0.7
Cc1nc(=O)c(-c2ccccc2)c(C)n1-c1ccc(Br)cc1	-11%	x	x	-4	2.2
Cc1ccc(NCc2ccc([N+](=O)[O-])s2)cc1	x	x	x	-2	-1.3
O=C(c1cccnc1NCc1ccccc1)N1CCOCC1	1%	-3	-157	-6	-3.3
Cc1nc(N2CCCCC2)c2sc(=S)n(C)c2n1	3%	8	-13	-3	-0.7	Arbovirus anti repeat=7
CCCN1CCC(NC(=O)Nc2cccc3ccccc23)CC1	-10%	x	x	0	-0.4
O=C(N/N=C/c1ccccn1)c1ccco1	-9%	0	-38	11	1.3
COc1cccc(NC(=O)N(CCN(C)C)C(C)c2cccnc2)c1 (stereo not given)	-4%	x	x	3	3.6
CC(=O)c1cccc(NC(=O)C2C3CCC(C3)C2C(=O)O)c1 (stereo not given)	x	x	x	-10	-3.7
Cc1c(C(=O)N2CCN(c3ccccc3)CC2)sc2nc3n(c(=O)c12)CCC3	x	x	x	-1	-1.6
COc1cccc(N2CCN(C(=O)C3C4C=CC5(CN(Cc6ccccc6Cl)C(=O)C35)O4)CC2)c1 (stereo not given)	3%	2	-24	0	-1.0
Oc1cccc2ccc(/C=C/c3cccs3)nc12	1.5µM*	-12	3	100	-7.9
CSc1cccc(NCc2ccc([N+](=O)[O-])cc2)c1	14%	-10	x	-5	4.6
Oc1ccc(/C=N/Nc2ccc(C(F)(F)F)cn2)cc1O	5%	-18	x	x	-10
Cc1nc(S(=O)(=O)Nc2ccccc2C(=O)NCC2CC2)cn1C	-5%	x	x	-7	-0.8
Cc1cc(Cl)cc(Cl)c1OCC(=O)NCc1ccco1	-9%	6	12	u	x
O=C(C1CCN(S(=O)(=O)c2ccc(-n3cnnn3)cc2)CC1)N1CCCCC1	x	x	x	0	-3.0
Cn1c(SCC(=O)c2ccccc2)nnc1C1COc2ccccc2O1 (stereo not given)	-1%	x	x	8	0.2
COc1ccc(C(C)=O)cc1CN1CCCCC1	6%	-4	-25	-5	-2.9
COc1cccc(/C(O)=C2/C(=O)C(=O)N(CCCN3CCOCC3)C2c2ccncc2)c1 (stereo not given)	-4%	4	-47	-2	-2.2
CCc1ccc(-c2nn(-c3ccccc3)cc2CSC(=N)N)cc1	6.7µM*	-38	-32	96	23
O=C(Nc1ccc(Cl)cc1)C1CCN(C(=O)c2ccco2)CC1	x	x	x	6	1.2
Cc1nn(Cc2c(Cl)cccc2Cl)c(C)c1NC(=O)c1sc2ccccc2c1Cl	-6%	-3	-12	0	0.5
CCOc1ccc(N(CC(=O)N2CCCC2)S(=O)(=O)c2c(C)noc2C)cc1	-1%	12	1	-1	x	Arbovirus anti repeat=4
O=C(N/N=C/c1ccco1)c1cc(-c2ccccc2)n[nH]1	37%	-13	-26	60	-4.7
CCOc1ccccc1N(CC(=O)NCCc1ccc(OC)c(OC)c1)S(=O)(=O)c1ccccc1	x	x	x	6	2.3
CN(C)CCCNc1cn[nH]c(=O)c1Cl	-3%	4	-11	5	-1.0
Cc1nn2c(NC(C)C)c3c(nc2c1-c1ccccc1)CCC3	5%	x	x	6	4.3
Cc1nc2c(-c3ccc(F)cc3)c(C)nn2c(N2CCOCC2)c1C	3%	18	-56	6	1.9
Cc1cc(/C=C2/SC(=S)N(c3cccc(Cl)c3)C2=O)c(C)n1-c1cccnc1	5%	x	-15	89	13
COc1ccc(N2CCN(C3CCCN(Cc4ccc(F)cc4Cl)C3)CC2)cc1 (stereo not given)	x	x	x	3	-2.1
CN(C)CCCN(C(=O)COc1ccccc1)c1nc2ccc(Cl)cc2s1	1%	-11	x	1	1.7

Reprinted from the listing (4 entries):
SMILES	Mtb H37Rv	Arbovirus anti	YopH PTP inh	Mtb betalactam	RecA splice inh	others
CCOC(=O)Cc1c(Sc2ccccc2)c2cc(C)ccc2n1C	14%	26	-29	26	8.7
CCn1nc(C)cc1-c1nnc(Sc2ncc([N+](=O)[O-])s2)n1C	x	x	x	3	-1.7
c1cc2c(cc1-c1cnc3n1CCC3)OCCO2	-5%	-41	-5	10	-1.4
CN(C)C(=O)COC(=O)c1ccccc1OCC(=O)Nc1ccc(SC(F)F)cc1	9%	3	-26	7	0.1

The list continues:
SMILES	Mtb H37Rv	Arbovirus anti	YopH PTP inh	Mtb betalactam	RecA splice inh	others
O=S1(=O)N=C(N(CCO)/N=C/C=C/c2ccccc2)c2ccccc21	3%	-5	-25	-5	-2.1
COc1ccc(Cl)cc1NC(=O)COC(=O)c1cc(NS(=O)(=O)c2cccs2)ccc1O	4%	7	-33	-2	-0.4
CN1CCN(CCCNC(=S)Nc2ccc(F)c(Cl)c2)CC1	-9%	10	x	0	1.1
COc1ccc(/C=N/OC/C(O)=C(\C#N)c2nc3ccccc3[nH]2)cc1OC	-6%	-5	-20	7	-1.3
CC(C)OC(=O)C1C(=O)CC(C)(O)C(C(=O)OC(C)C)C1c1cccnc1 (stereo not given)	-7%	10	-33	-11	-2.3
C=CCOC(=O)C1=C[C@H](c2cn(C(C)=O)c3ccccc23)[C@@H](CCCO)[C@H](OCC)O1	-3%	2	x	2	1.9
CC1CCN(S(=O)(=O)c2ccc(NC(=O)CN3CCCC3)cc2)CC1	x	x	x	5	-5.1
Cc1ccc(-c2cc(C(=O)O)n(-c3ccc(S(N)(=O)=O)cc3)n2)cc1	-3%	1	x	-5	0.5
O=C(Nc1cn(-c2ccccc2)nc1-c1ccccc1)c1ccccc1	23%	1	-25	0	0.9
CC(C)c1nnc(NC(=O)C2CCCN2C(=O)Nc2cccc(Cl)c2)s1 (stereo not given)	x	x	x	2	0.4
CCCN(Cc1cc2cc(OC)ccc2[nH]c1=O)C(=O)c1ccncc1	-24%	-21	-20	-2	-1.3
Cc1ccc(N2C(=O)NC(=O)/C(=C\c3cnc(-c4ccccc4)nc3)C2=O)cc1	-5%	-1	-19	3	1.1
COc1ccc(C(=O)NNC(=O)CN2CCC(n3nnc4cc(C)ccc43)CC2)cc1	-3%	3	-26	5	1.2
Cc1c(C(=O)N2CCN(c3ccc(F)cc3)CC2)sc2nc3n(c(=O)c12)CCC3	x	x	x	8	-1.9
